# Screening data (PubChem)
# T cruzi repl = T. cruzi replication inhibition | T. cruzi beta-gal in NIH3T3, luminescence, 90 h | inhibition, % (test concentration not listed) | 300,000 compounds, 1.4% hits;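 active means mean inhibition across valid replicates above about 55%, limit read from the data; inconclusive means mean below that limit but half or more replicates reach it; inactive means mean below it, under half of replicates reach it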;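 further: signal also drops with host cell toxicity which is not excluded here; 0% = plate median of DMSO wells and 100% = zero luminescence signal; higher percent means less beta-gal luminescence so fewer parasites; stock transfer was 50 nL into about 50 µL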
# Calb FLC = affects C. albicans growth with fluconazole; C. albicans CaCi-2 (fluconazole-resistant clinical isolate) + fluconazole, Alamar Blue growth, 48 h; growth inhibition, % (test concentration not listed); 300,000 compounds, 0.57% hits; AID 1979;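 active means most replicates above 75%; inconclusive means exactly half above 75%; inactive means most below 75%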;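 further: all wells also contain fluconazole at 8 µg/ml as a sub-toxic cotreatment; 0% = median of DMSO wells and 100% = median of geldanamycin control wells; wells of about 8 µL received 7.5 nL stock; the first replicate is given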
# Bfl-1 A1 inh = inhibitors of the anti-apoptotic protein A1, read as caspase activation | MEF A1-2A-BIM cells, Caspase-Glo 3/7 luminescence, 3 h; percent of clofoctol response, vehicle zero | caspase activation, % (test concentration not listed) | 330,000 compounds, 0.066% hits;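 active means over half of replicate activation scores above 10%, or exactly half above 10 with the replicate mean above 10; inconclusive means replicate mean below 10 yet half the replicates above 10; inactive means over half of replicates below 10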;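 further: wells of about 30 µL received 50 nL stock; many hits fall short of the cut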
# B2AR ag = human beta-2 adrenergic receptor agonism by FAP; 340,000 compounds, 0.43% hits; response, % (no concentration beside the values); Am2.2-beta2AR cells, FAP receptor internalization, flow cytometry; reference of the scale not given here;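 active means response above a set limit, near 3 SD of response in nonfluorescent compounds, cut at about 42% in these data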;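 further: stock transfer was 100 nL into about 11 µL; a reference agonist was the positive control; negative values mostly stem from fluorescent compounds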
# LANA-H2A inh = blocks KSHV LANA binding to histone H2A/H2B. cell-free LANA-H2A/H2B peptide, fluorescence polarization. inhibition, % (concentration not given with the values). AID 2629. 320,000 compounds, 0.6% hits; in the data active means inhibition mostly above about 10%, no sharp cut-off; inactive means mostly below about 6.7%;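 further: stock transfer was 7.5 nL into about 10 µL; 0% = median of vehicle wells and 100% = median of positive control wells; one replicate is shown; the record names a cut of 25% in any replicate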
# Target sequence (Q9QR71 whole entry, looked up): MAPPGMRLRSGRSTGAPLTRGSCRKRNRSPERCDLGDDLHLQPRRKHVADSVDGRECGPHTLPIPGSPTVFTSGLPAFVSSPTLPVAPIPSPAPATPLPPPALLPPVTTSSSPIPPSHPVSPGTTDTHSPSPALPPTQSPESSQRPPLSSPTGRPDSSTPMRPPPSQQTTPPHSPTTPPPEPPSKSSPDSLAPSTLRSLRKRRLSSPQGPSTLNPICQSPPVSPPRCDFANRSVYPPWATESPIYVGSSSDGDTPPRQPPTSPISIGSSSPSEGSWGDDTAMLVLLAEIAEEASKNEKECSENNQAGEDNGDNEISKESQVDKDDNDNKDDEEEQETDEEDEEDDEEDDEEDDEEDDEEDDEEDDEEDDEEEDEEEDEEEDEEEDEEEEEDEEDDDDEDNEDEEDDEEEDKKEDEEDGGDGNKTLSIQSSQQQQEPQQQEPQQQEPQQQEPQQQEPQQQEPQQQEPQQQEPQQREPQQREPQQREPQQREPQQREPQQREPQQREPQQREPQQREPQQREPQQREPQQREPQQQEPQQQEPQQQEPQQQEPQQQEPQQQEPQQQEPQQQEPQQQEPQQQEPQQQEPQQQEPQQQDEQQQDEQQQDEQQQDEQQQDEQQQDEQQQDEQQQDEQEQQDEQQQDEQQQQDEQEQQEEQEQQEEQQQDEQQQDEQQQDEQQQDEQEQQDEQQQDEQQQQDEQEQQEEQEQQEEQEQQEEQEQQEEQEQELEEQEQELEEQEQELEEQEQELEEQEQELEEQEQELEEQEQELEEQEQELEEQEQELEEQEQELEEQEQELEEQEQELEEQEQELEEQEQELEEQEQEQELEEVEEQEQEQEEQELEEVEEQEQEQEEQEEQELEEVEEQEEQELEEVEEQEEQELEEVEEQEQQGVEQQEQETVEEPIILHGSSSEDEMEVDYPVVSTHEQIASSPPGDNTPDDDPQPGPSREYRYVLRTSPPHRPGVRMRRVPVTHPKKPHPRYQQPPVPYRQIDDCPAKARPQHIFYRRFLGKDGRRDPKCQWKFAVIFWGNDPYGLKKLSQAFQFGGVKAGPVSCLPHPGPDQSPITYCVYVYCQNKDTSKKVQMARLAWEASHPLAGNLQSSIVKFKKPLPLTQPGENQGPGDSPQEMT
# Beta apoptosis = blocks beta cell apoptosis. INS-1E cytokine-induced death, ATP luminescence, 48 h; percent of positive-control rescue, neutral wells zero. protection from apoptosis, % (test concentration not listed). 300,000 compounds, 0.8% hits. AID 435005;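 active means all replicates at 75% or more, or half of them and the mean; inconclusive means half reach 75% but not the mean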;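 further: 0% = cytokine-treated negative control wells and 100% = positive control rescue; higher means more ATP so stronger rescue from cytokine killing; wells of about 40 µL received 100 nL stock; the first replicate is given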
# ALR inh = human ALR oxidase inhibition via reduced H2O2; AID 485317; 290,000 compounds, 3.8% hits; purified ALR, DTT oxidation, H2O2 HRP-luminol luminescence; P55789; inhibition, % (concentration not given with the values);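 active means mean and each replicate at 75% or more; inconclusive means only one of the two met; inactive means neither met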;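 further: stock transfer was 7.5 nL into about 7.5 µL; 0% = neutral wells and 100% = wells with inactivated enzyme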
# Ecoli rRNA inh = inhibitors of bacterial rRNA selective over humanized ribosomes; E. coli WT GFP vs humanized-ribosome RFP mutants, fluorescence, 24 h; active compounds read low; DMSO median 0, no signal -100; GFP signal change (wild-type ribosome), % (test concentration not listed); 350,000 compounds, 1.6% hits; AID 720706;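 active means significant combined selectivity score with lowered wild-type GFP, culture density cut under 30%, mutant RFP and density less affected; inactive means any of these conditions unmet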; further: one replicate is shown; some compounds called inactive have numbers as strong as hits
# Ecoli rRNA inh OD600 = recorded beside Ecoli rRNA inh, whose call it bears; OD600 change, %; measured here: OD600 growth;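 optical density of the mix in the first replicate; 0 = DMSO median and -100 = no signal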
# Ecoli rRNA inh RFP = further read-out of Ecoli rRNA inh, marked with its call; RFP signal change, %; measured here: RFP humanized mutant strains;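 first replicate; 0 = DMSO median and -100 = no signal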
# The depositor's hits bear a star; ? = inconclusive; · = not tested or not shown; ! = a repeat was not active. These rows are one share of the data (hit frequency here may not be typical).
SMILES,T cruzi repl,Calb FLC,Bfl-1 A1 inh,B2AR ag,LANA-H2A inh,Beta apoptosis,ALR inh,Ecoli rRNA inh,Ecoli rRNA inh OD600,Ecoli rRNA inh RFP
COc1ccc(N(Cc2cc(=O)[nH]c3ccccc23)C(C)=O)cc1,-4,1,0.4,6,2.2,-2,-9,9,5,5.4
Cc1cccc(C)c1NC(=S)/C(=C(\[O-])c1cccs1)[n+]1ccccc1,-2,-25,0.0,9,3.4,-6,-3,·,·,·
COc1ccccc1-c1ccc(=O)n(CC(=O)NCC2CCCO2)n1 (centres undefined),-1,0,-0.5,1,3.2,2,1,13,16,0.8
Cc1ccc(C(=O)NNC(=O)CCC(=O)Nc2cc(C)on2)cc1,-5,0,1.3,0,0.4,-9,-4,·,·,·
O=C(NCCCCNC(=O)c1c(Cl)cccc1Cl)c1c(Cl)cccc1Cl,-1,0,0.9,2,-0.5,·,-7,25,8,2.9
C[C@H](CO)N1C[C@H](C)[C@@H](CN(C)C)Oc2c(NC(=O)CCC(F)(F)F)cccc2C1=O,·,·,-0.2,-1,-2.2,-3,0,1,19,-4.8
O=S(=O)(NCCCCCNS(=O)(=O)c1ccccc1)c1ccccc1,-10,-6,0.5,6,16*!,1,1,·,·,·
Cc1ccc(-n2cccc2/C=C2\C(=N)N3N=C(c4ccco4)SC3=NC2=O)cc1,-9,·,1.3,6,-0.7,2,13,-6,-5,1.1
O=C(NCC(F)(F)F)Nc1nnc(C(F)(F)F)s1,-3,3,-0.3,3,-0.6,8,-7,·,·,·
O=S(=O)(c1cccs1)N1CCN(c2ccccc2F)CC1,0,2,0.3,1,1.4,3,-3,-10,-12,0.3
Cc1cc(C(=O)CSc2nnc(C3CC3)n2C2CC2)c(C)n1C(C)C,·,·,1.0,-10,-3.9,2,4,-10,-4,-1.4
Nc1nc(Cl)cc(N2CCCC2)n1,-14,-1,0.3,0,-1.9,-10,-57,8,0,3.6
CN(CCCNC(=O)c1cc2c(Cl)nc3ccccc3c2s1)Cc1ccccc1,69*,8,1.0,19,0.2,6,-11,-56,-76,-8.6
C#CCCc1cocc1/C=[N+](\[O-])c1ccc(C(=O)OCC)cc1,·,·,0.0,7,1.5,-3,6,2,13,3.0
COc1ccc(N(Cc2cc(=O)[nH]c3ccccc23)C(=O)C(C)C)cc1,0,-4,0.1,-4,-13,-2,10,8,5,1.5
CC(=O)Nc1ccc(NC(=O)C(C)OC(=O)CNC(=O)c2ccc(-c3ccccc3)cc2)cc1 (centres undefined),-10,7,-1.7,-2,2.4,0,0,8,3,-3.0
Cc1cc(C(C)(C)C)cc(S(=O)(=O)NCCc2ccncc2)c1C,16,3,0.7,-2,-1.2,-4,3,-6,-9,1.3
CCCn1c(SCC(=O)N2CCCCC2)nnc1-c1ccco1,6,-7,0.2,-4,-0.3,3,-4,·,·,·
COc1ccc(Br)cc1/C=N/NC(=O)c1ccc2nc[nH]c2c1,1,16,0.2,-15,0.1,-5,-4,-2,-1,-2.1
Cc1nn(CC(=O)NCCc2ccco2)c(=O)c2nn(-c3ccccc3)c(C)c12,-3,0,-0.2,2,-2.7,-2,53,15,18,0.4
CC(=O)CCC1CC(c2ccc(Cl)cc2)=NO1 (centres undefined),-15,1,-1.2,-5,-3.3,-3,-1,6,6,-9.2
CC(=O)N1CCN=C1SCc1cccc(Cl)c1,-19,-2,-0.2,-24,-4.0,·,100*,11,-2,-0.9
COc1ccccc1/C=C/C1(C(=O)NC2CCCC2)CC(=O)N1c1ccc(F)cc1 (centres undefined),8,-32,0.9,4,1.1,8,-9,·,·,·
Cc1ccccc1N(CC(=O)N1CCCCCC1)S(C)(=O)=O,-1,18,1.0,-4,-1.0,-9,-9,9,7,0.4
CN1C(=O)CSC1=NCC12CC3CC(CC(C3)C1)C2,5,-4,0.2,13,-9.2,-3,-5,7,0,-8.8

# Structural class, those above with an aryl thioether with sulfur outside any ring
SMILES,T cruzi repl,Calb FLC,Bfl-1 A1 inh,B2AR ag,LANA-H2A inh,Beta apoptosis,ALR inh,Ecoli rRNA inh,Ecoli rRNA inh OD600,Ecoli rRNA inh RFP
Cc1cc(C(=O)CSc2nnc(C3CC3)n2C2CC2)c(C)n1C(C)C,·,·,1.0,-10,-3.9,2,4,-10,-4,-1.4
CCCn1c(SCC(=O)N2CCCCC2)nnc1-c1ccco1,6,-7,0.2,-4,-0.3,3,-4,·,·,·

# In the list so far, two have a CF3 group.
SMILES,T cruzi repl,Calb FLC,Bfl-1 A1 inh,B2AR ag,LANA-H2A inh,Beta apoptosis,ALR inh,Ecoli rRNA inh,Ecoli rRNA inh OD600,Ecoli rRNA inh RFP
C[C@H](CO)N1C[C@H](C)[C@@H](CN(C)C)Oc2c(NC(=O)CCC(F)(F)F)cccc2C1=O,·,·,-0.2,-1,-2.2,-3,0,1,19,-4.8
O=C(NCC(F)(F)F)Nc1nnc(C(F)(F)F)s1,-3,3,-0.3,3,-0.6,8,-7,·,·,·

# (cont.)
SMILES,T cruzi repl,Calb FLC,Bfl-1 A1 inh,B2AR ag,LANA-H2A inh,Beta apoptosis,ALR inh,Ecoli rRNA inh,Ecoli rRNA inh OD600,Ecoli rRNA inh RFP
C/C(=N\O)C(=O)NCc1ccncc1,-13,-2,0.1,8,-1.2,-6,0,·,·,·
N#Cc1nc(COc2ccc(Cl)cc2)oc1N1CCCC1,10,-9,0.4,-27,3.0,-10,-6,·,·,·
Cc1cccc(NC(=O)/C(=C\c2ccco2)NC(=O)c2ccccc2)c1,-14,17,-0.2,-7,-3.1,-12,-6,·,·,·
Cc1ccccc1COc1ccc(/C=C(\C#N)C(N)=O)cc1,-6,0,-1.5,-8,1.0,-2,-2,12,18,-3.3
COc1ccc(NC(=O)COc2cc(C)cc(C)c2)cc1S(=O)(=O)N1CCCCC1,27,6,-0.3,-8,·,-4,·,-3,4,2.0
COc1ccccc1CN1C(=S)SC(C)(C)C1NO (centres undefined),-13,3,0.0,3,-1.4,-9,·,·,·,·
CC(=O)CC(CC(=O)NC1CCCCC1)c1ccccc1 (centres undefined),-22,-7,0.4,-2,2.8,-1,-6,12,14,0.6
CC1CC(C)CN(C(=O)CSCC(=O)O)C1 (centres undefined),-14,16,0.4,1,-4.1,-2,·,4,9,7.3
COc1ccc(Cl)cc1C(=O)NCc1ccc2c(c1)OCO2,9,-38,0.2,-14,3.8,-4,16,-6,-5,-7.0
O=C(COC(=O)/C=C/c1ccc(F)cc1)Nc1ccccc1-c1ccccc1,-14,5,0.4,-3,0.8,-7,-1,5,7,-0.7
CC(C)OCCCNC(=O)c1cc(S(=O)(=O)N2CCc3ccccc32)cn1C,10,-4,?,2,5.8,5,-12,-4,1,0.1
CC(=O)N(C)C1(c2nnnn2CCOC(=O)Nc2ccc(Cl)cc2)CCCCC1,11,12,-0.3,0,-4.5,-3,-1,·,·,·
O=C1C=C(NCc2ccccc2)CCC1,-3,0,-0.6,-9,3.6,0,3,8,7,-0.2
COCCN(Cc1ccccc1)C(=O)Cc1ccc(OC)c(S(=O)(=O)N2CCOCC2)c1,0,-7,1.0,12,1.8,1,-6,-1,-3,-3.7
CCC(C(=O)Nc1ncccn1)(C(F)(F)F)C(F)(F)F,-8,-4,-0.2,5,-1.1,5,-20,·,·,·
Cn1c(Sc2ccc(Br)cc2)c(C=O)c2ccccc21,3,0,-0.3,12,0.6,8,-5,·,·,·
CCOC(=O)c1ccc(S(=O)(=O)N(CCO)Cc2cc3cc(OC)c(OC)cc3[nH]c2=O)cc1,1,8,0.2,4,5.6,-5,-1,1,2,7.2
Cc1c(C=NNC(=O)c2ccc(Br)cc2)c2ccccn2c1C(=O)c1ccncc1,·,·,0.8,-1,0.8,4,·,14,9,-0.4
CC(NC(=O)CCNS(=O)(=O)c1ccc2c(c1)oc(=O)n2C)c1ccccc1 (centres undefined),-2,2,-1.4,-3,-2.2,2,-9,2,6,-1.6
COCCCNC(=O)c1ccccc1Sc1ccc(NC(C)=O)nc1,-1,3,0.7,0,-0.1,-7,-17,11,14,3.5
Clc1ccc(-c2nc(N3CCCCC3)nc3ccccc23)cc1,19,·,0.4,3,-13,7,3,·,·,·
Cc1cc(/C=C2/NC(=O)N(Cc3ccccc3F)C2=O)c(C)n1-c1ccccn1,4,-4,-0.6,12,0.3,-4,-8,·,·,·
NS(=O)(=O)c1cccc(NC(=O)COC(=O)Cn2cc(C(F)(F)F)ccc2=O)c1,·,·,-0.8,-5,2.8,2,·,·,·,·
CCC(=O)NC(c1ccc(OC)cc1)c1cc(Cl)c2cccnc2c1O (centres undefined),?,104*,1.3,0,0.5,96*,-3,17,7,-7.3
CC1(C)Cc2ccccc2-c2nnc(-c3ccccc3)n21,-15,-9,-0.4,0,5.0,-4,-4,·,·,·
SMILES,T cruzi repl,Calb FLC,Bfl-1 A1 inh,B2AR ag,LANA-H2A inh,Beta apoptosis,ALR inh,Ecoli rRNA inh,Ecoli rRNA inh OD600,Ecoli rRNA inh RFP
CCCCc1ccc(C2C(C#N)=C(N)SC(N)=C2C#N)s1,·,·,-0.3,·,-12,4,98*,·,·,·
CCSc1nnc(NC(=O)CSc2nc3c(c(=O)n2-c2ccccc2)SCC3)s1,·,-20,-0.3,-8,1.6,4,-19,·,·,·
Cc1ccc(N2CCN(C(=O)CNS(=O)(=O)c3ccc(Br)s3)CC2C)cc1 (centres undefined),15,-3,-0.1,2,-0.7,-1,98*,·,·,·
c1ccc(-n2c(Cc3cn4ccsc4n3)nnc2N2CCOCC2)cc1,-6,5,0.1,8,4.8,-6,-3,·,·,·
CCCCN1C(=O)C(=O)N(CC(=O)Nc2sc(C)c(CC)c2C(=O)OCC)C1=O,-3,2,0.8,1,-2.1,2,-3,0,-8,8.4
O=C(Nc1cc(N2CCOCC2)ncn1)NC1(C(F)(F)F)Oc2ccccc2O1,-19,-6,0.9,2,1.2,0,-5,·,·,·
O=C(Oc1ccccc1C(=O)N1CCOCC1)c1ccc(Br)cc1,-15,3,-0.3,1,-2.1,-1,2,·,·,·
COc1ccc(OC)c2[nH]c(=O)c(CCNC(=O)c3ccc(S(=O)(=O)N(C)C)cc3)cc12,-5,4,0.6,-10,0.9,2,-9,·,·,·
Cc1nc2ccccc2c(=O)n1/N=C/c1ccccc1F,-6,0,0.5,-10,6.3,-1,-4,-4,7,-1.5
COc1cc(C2C(C#N)=C(N)OC3=C2C(=O)CC(C)(C)C3)c([N+](=O)[O-])cc1OC (centres undefined),2,-1,-0.4,9,3.5,·,-89,·,·,·
C=COCCn1c(-c2nonc2N)nc2ccccc21,-6,-15,0.3,-1,-1.1,0,-2,·,·,·

# Results in B2AR ag, Ecoli rRNA inh and T cruzi repl, for three of the compounds above:
Compound | B2AR ag | Ecoli rRNA inh | T cruzi repl
CCCCN1C(=O)C(=O)N(CC(=O)Nc2sc(C)c(CC)c2C(=O)OCC)C1=O | 1 | 0 | -3
O=C(Nc1cc(N2CCOCC2)ncn1)NC1(C(F)(F)F)Oc2ccccc2O1 | 2 | · | -19
O=C(Oc1ccccc1C(=O)N1CCOCC1)c1ccc(Br)cc1 | 1 | · | -15
